High-throughput results: PubChem BioAssay, National Center for Advancing Translational Sciences (NCATS)
TRPML1 agonist: agonists of human TRPML1 channel. Q9GZU1. TRPML1-expressing cells, Ca2+ dye fluorescence, FDSS; host cell line not named in the record; reference of the full effect not given here. activation, % (no concentration beside the values). hit rate 0.12% among 410,000. AID 624414; in the data active = activation above about 50%; inconclusive = about 30% to 50%; inactive = below about 30%; further: 0% is about no effect; the text of the record puts the active cut at 80%
Target sequence (Q9GZU1 whole entry, looked up): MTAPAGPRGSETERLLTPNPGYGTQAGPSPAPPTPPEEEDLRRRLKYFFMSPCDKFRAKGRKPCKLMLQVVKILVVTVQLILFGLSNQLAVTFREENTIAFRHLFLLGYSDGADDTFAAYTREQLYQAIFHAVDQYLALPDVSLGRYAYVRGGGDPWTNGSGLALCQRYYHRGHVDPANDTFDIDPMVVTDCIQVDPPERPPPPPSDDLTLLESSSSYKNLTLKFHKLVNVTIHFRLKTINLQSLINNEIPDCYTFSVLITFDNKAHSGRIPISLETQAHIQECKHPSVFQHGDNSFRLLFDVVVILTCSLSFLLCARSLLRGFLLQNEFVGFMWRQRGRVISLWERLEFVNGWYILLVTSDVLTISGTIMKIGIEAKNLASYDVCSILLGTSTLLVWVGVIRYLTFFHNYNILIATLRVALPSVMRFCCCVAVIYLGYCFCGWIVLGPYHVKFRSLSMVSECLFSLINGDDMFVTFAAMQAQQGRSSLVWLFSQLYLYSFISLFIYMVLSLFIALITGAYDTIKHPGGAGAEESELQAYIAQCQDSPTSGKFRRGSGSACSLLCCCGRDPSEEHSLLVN
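Tet-induced TRPML1-DL cells, 1,500 per well, cultured overnight, were loaded with a no-wash Ca2+ dye for 45–90 min. Calcium fluorescence was recorded on the FDSS for 110 s after compound addition, before the EC80 agonist (4 uM 54-4) was added.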
Six1-Eya2 inh: inhibitors of human Six1/Eya2 interaction. Q15475+O00167. AlphaScreen GST-Six1/His-Eya2 binding, biochemical; active compounds read low; control for the full effect not named in the record. activity change, % (concentration not given with the values). hit rate 0.56% among 360,000; in the data active = activity change below about -65%; inconclusive = about -30% to -65%; inactive = above about -30%; further: on the % scale 0 is the no-effect control and ±100 the full control effect
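AlphaScreen luminescence read after one hour at 37 °C in darkness. Pin-transferred compounds met GST-Six1 and His-Eya2 protein (5X stock 250 nM/500 nM) plus glutathione donor and Ni-chelate acceptor beads (5X, 50 ug/mL).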
CtBP-E1A blk: CtBP/E1A binding inhibition; AlphaScreen GST-E1A/His-CtBP binding, 1536-well; active compounds read low; control for the full effect not named in the record; activity change, % (concentration not given with the values); hit rate 0.49% among 340,000; AID 651724; in the data active means activity change below about -65%; inconclusive means about -30% to -65%; inactive means above about -30%; further: on the % scale 0 is the no-effect control and ±100 the full control effect
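Homogeneous bead-based format: GST-tagged E1A captured on glutathione donor beads, His-tagged CtBP on nickel acceptor beads; compounds precede bead addition by 2 h at 37 °C.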
D2 ag: agonists of human D2 dopamine receptor (beta-arrestin). P14416. DiscoveRx PathHunter D2 beta-arrestin, luminescence, 90 min; 100% = 57 uM dopamine signal. activation, % (no concentration beside the values). hit rate 0.084% among 360,000; in the data active = activation above about 40%; inconclusive = about 15% to 40%; inactive = below about 15%; further: compound concentration not given in the record; the text of the record calls up to 30% inactive
Target sequence (P14416 whole entry, looked up): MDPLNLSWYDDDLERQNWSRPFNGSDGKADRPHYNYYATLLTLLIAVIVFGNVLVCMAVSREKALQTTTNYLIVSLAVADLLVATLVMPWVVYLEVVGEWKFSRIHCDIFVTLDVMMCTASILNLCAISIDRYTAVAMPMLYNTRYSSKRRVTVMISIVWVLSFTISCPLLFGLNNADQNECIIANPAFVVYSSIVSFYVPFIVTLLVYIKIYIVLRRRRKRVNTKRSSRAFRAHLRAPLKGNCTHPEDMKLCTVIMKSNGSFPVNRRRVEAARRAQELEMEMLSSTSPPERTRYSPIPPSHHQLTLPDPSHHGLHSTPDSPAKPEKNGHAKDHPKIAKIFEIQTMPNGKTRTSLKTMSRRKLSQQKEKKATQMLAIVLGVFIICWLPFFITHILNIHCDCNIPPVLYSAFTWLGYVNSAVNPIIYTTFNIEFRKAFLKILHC
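Agonist mode: compounds alone added to overnight-plated D2 PathHunter cells for 90 min at 37 C, with 57 uM final dopamine (EC100) defining full response. Beta-arrestin recruitment detected by chemiluminescent reagent, read after 1 h at ambient temperature.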
PINK1 modulator: modulators of PINK1 expression | AID 624263 | hit rate 0.2% among 410,000 | PINK1 immunofluorescence, high-content cytometry, 24 h | Potency, µM (highest dose often 76.6 µM), for the others: at the top dose activation (PINK1 increase), most hits filed as activators; active = well fitted activation curve with a large enough effect; inconclusive = small, poorly fitted or top-dose-only effect; inactive = flat fitted curve, though single readings scatter; cell line not stated here;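 further: potency means the concentration at half of the fitted maximal effect; % of control where 0% means no effect; nearly all actives have a fitted effect of over 65% in size; a mitochondrial uncoupler was the plate control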
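Stable cell line treated 24 h with compounds at 5 concentrations (CCCP controls), then fixed and immunostained for PINK1 plus nuclear and cell stains; PINK1 immunofluorescence quantified by laser-scanning microplate cytometry.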
D2 potentiator: positive allosteric modulators of human D2 dopamine receptor | P14416 | potentiation, % (no concentration beside the values) | hit rate 0.23% among 360,000 | DiscoveRx D2 beta-arrestin cells, luminescence, 90 min; 100% = 57 uM dopamine signal; active = potentiation of 50% or more; inconclusive = 30% to 50%; inactive = 30% or less;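 further: compound concentration not given in the record; tested on top of an EC20 dose of dopamine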
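D2 cells co-treated with compound plus 50 nM dopamine (EC20) for 90 min at 37 deg C to detect potentiation. Beta-arrestin recruitment was read as enzyme-fragment luminescence after 1 h at ambient temperature. Full response was set by 57 uM dopamine.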
* = called active by the depositor; ? = inconclusive; · = no result given; [ ] = remark or other dose. Rows are unselected, and some 1.3% of all compounds hit somewhere here.

Sequence of screens: TRPML1 agonist, Six1-Eya2 inh, CtBP-E1A blk, D2 ag, PINK1 modulator, D2 potentiator
- Cc1cc(C)c2[nH]c(=O)c(C(c3nnnn3Cc3ccc4c(c3)OCO4)N3CCCCC3)cc2c1 (configuration not stated)
 : 0.9, 9, -2, -4.9, 1.7%, -4
- Cc1cc(C(=O)CSc2cccc[n+]2[O-])c(C)n1-c1ccc(OC(F)F)cc1
 : 1.6, 8, 3, -0.8, 3.0%, 3
- CCC(=O)Oc1ccc(-c2cnc3ccccc3n2)cc1
 : 0.3, -3, -4, -0.7, -4.7%[38.3 µM], -6
- Fc1ccc(NC(=S)Nc2ccccc2Cl)cc1
 : -0.3, -3, -3, -3.9, 4.0%, 4
- CCOc1ccc(-c2nc(N)nc(C)c2-c2ccc(OC)c(OC)c2)c(O)c1
 : 2.4, -8, -3, -0.1, -2.2%, 2
- Clc1nc2nc3n(c2nc1Cl)CCC3
 : 0.3, 2, ·, 0.3, 1.7%, -9
- C/C(=N\NC(=O)C(=O)Nc1c(C)n(C)n(-c2ccccc2)c1=O)c1ccc(Cl)s1
 : -0.5, -7, 7, -2.1, -2.7%, -15
- CCC(=O)Nc1c(S(=O)(=O)c2ccccc2)c2nc3ccccc3nc2n1C(C)c1ccccc1 (configuration not stated)
 : 2.1, -1, -2, 0.7, ?, -13
- COCc1ccc(C(=O)N2CCCCC2C(=O)Nc2ccc(-n3nc(C)cc3C)cc2)o1 (configuration not stated)
 : -0.1, -10, 2, -3.1, -1.0%, -10
- CCN(CC)CCN(C(=O)c1ccc(C(=O)c2ccccc2)cc1)c1nc2ccc(OC)cc2s1
 : -0.2, -15, -6, -5.7, 5.3%, -21

Next compounds follow:
Sequence of screens: TRPML1 agonist, Six1-Eya2 inh, CtBP-E1A blk, D2 ag, PINK1 modulator, D2 potentiator
- O=C(CN1C(=O)NC2(CCCCC2)C1=O)N1CCN(C(=O)c2cccs2)CC1
 : -0.4, 7, -4, 0.1, -0.1%, -11
- O=C(NC1CCCN(c2ccc(C(F)(F)F)cn2)C1)c1ccncc1 (configuration not stated)
 : 0.0, 0, 5, 4.8, -1.3%, 1
- COC(=O)C1=CN(Cc2cccs2)C=C(C(=O)OC)C1c1ccc(OC)cc1OC
 : 2.6, 40, 35, -1.5, 1.4%, -11
- Clc1ccccc1Cc1noc(CN2CCCCC2CCc2ccccn2)n1 (configuration not stated)
 : 0.2, -3, -4, -1.8, 3.7%, -2
- O=C1CN(C(=O)COC(=O)c2ccc[n+]([O-])c2)c2ccccc2N1
 : 2.7, -3, 1, 3.7, -0.3%, -7
- CC(=O)c1ccc(OCCCC(=O)N2CCN(S(=O)(=O)c3ccc(C(C)C)cc3)CC2)cc1
 : -0.1, -6, 2, -1.4, -1.1%, 7
- Cc1ccc(CNC(=O)CC(NC(=O)c2ccccc2)c2ccccc2)cc1 (configuration not stated)
 : 1.3, -1, 5, -3.2, 0.6%, 0
- CCc1ccc2oc(=O)cc(CN3CCC(C)CC3)c2c1
 : -0.3, 1, -1, -2.4, -0.1%, -27
- CC(C)COc1ccc(CNC(=S)N/N=C/c2ccc([N+](=O)[O-])cc2)cc1
 : 1.6, -9, -5, -4.0, 12%, -1
- CC(C)c1ccc(N(CCc2ccccn2)C(=O)C(C)(C)C)cc1
 : 1.4, 3, 11, 2.4, 1.3%, -12

(further entries)
Sequence of screens: TRPML1 agonist, Six1-Eya2 inh, CtBP-E1A blk, D2 ag, PINK1 modulator, D2 potentiator
- CCOC(=O)C1=C(COC(=O)/C=C/c2ccccc2Cl)NC(=O)NC1C (configuration not stated)
 : -0.4, -2, 3, 1.6, -1.1%, -7
- Cc1nnc(SCCCn2c(N3CCN(c4ccccc4)CC3)nc3c2c(=O)[nH]c(=O)n3C)s1
 : -0.1, 0, -9, -2.9, 1.7%, 16
- COc1ccc(-c2ccc3[nH]c4c(c3c2)CCN2C(=O)[C@@H]([C@H](C)O)[C@@H](N(C)C(=O)Nc3cc(Cl)cc(Cl)c3)C[C@@H]42)cc1
 : 0.1, -25, -12, -9.0, 5.7%, 0
- COCCNC(=O)c1cn(Cc2c(F)cccc2Cl)nn1
 : 1.2, 4, -9, -1.8, -2.5%, -2
- COc1ccc(C(=O)NC(Cc2ccc(OC(=O)c3ccc(OC)cc3)cc2)C(=O)O)cc1 (configuration not stated)
 : 0.1, 5, 1, -2.4, 1.2%, -6
- Clc1ccc(-c2ccc(SCc3ccccn3)nn2)cc1
 : -0.2, -1, -1, -0.9, 2.2%, -14
- Cc1ccc(C(C(=O)NCc2ccccc2)N(C(=O)c2ccccn2)c2ccccc2)o1 (configuration not stated)
 : -0.3, -11, -27, -3.1, 2.8%, 2
- CN(CCC#N)C(=O)COC(=O)/C=C/c1cccs1
 : 0.1, 21, 37, -9.3, -0.4%, 1
- Cc1[nH]c2ccc(Cl)cc2c(=O)c1CN1CCCC1
 : -0.2, -3, 3, 2.4, 1.7%, -20
- Cn1c(Cc2cccc3ccccc23)nnc1SCC(=O)N1CCN(c2ccccc2)CC1
 : -0.7, -7, -19, -0.8, -3.9%, -5

Quoted from the listing.
Entry of CN(CCC#N)C(=O)COC(=O)/C=C/c1cccs1 under Six1-Eya2 inh: 21
Entry of CCOC(=O)C1=C(COC(=O)/C=C/c2ccccc2Cl)NC(=O)NC1C (configuration not stated) under TRPML1 agonist: -0.4

Remaining list, next part:
Sequence of screens: TRPML1 agonist, Six1-Eya2 inh, CtBP-E1A blk, D2 ag, PINK1 modulator, D2 potentiator
- CC(CC1CC(C)(C)OC1=O)C(=O)Nc1ccc([N+](=O)[O-])cc1 (configuration not stated)
 : -0.5, -2, -5, -1.3, 0.0%, -24
- CC1CN(Cc2nc3c(c(=O)[nH]c(=O)n3C)n2CCN2CCOCC2)CC(C)O1 (configuration not stated)
 : 2.7, 4, -5, -1.4, 3.2%[38.3 µM], 12
- CCc1nc(SCC(=O)c2ccccc2)c2ccccc2n1
 : 3.2, 1, ?, 0.8, 1.1%, 1
- O=C(OCc1nnn(Cc2ccccc2)c1-c1c(COC(=O)c2ccccc2)nnn1Cc1ccccc1)c1ccccc1
 : 1.1, -1, -1, -1.6, 1.7%, -7
- CCOC(=O)C(NCCc1ccccc1)(NC(C)=O)C(F)(F)F (configuration not stated)
 : -0.5, 6, 8, 0.9, 1.7%, -16
- COC(CNC(=O)C1CCCN(S(=O)(=O)c2c(C)noc2/C=C/c2cccs2)C1)OC (configuration not stated)
 : 0.1, 2, 0, -4.8, 0.8%, 1
- Cc1ccc(-c2csc3nc(CSc4nnc(-c5ccc(Cl)cc5)n4C)[nH]c(=O)c23)cc1
 : 4.6, 1, 12, -0.7, -0.2%, -8
- CN(C)CC(O)c1ccc(C=Cc2ccc(Cl)cc2)cc1 (configuration not stated)
 : 1.1, -4, -6, 3.1, -2.9%, -3
- COc1cccc(CN(CC2CCCO2)S(=O)(=O)c2ccc(S(=O)(=O)NCC3CCCO3)cc2)c1OC (configuration not stated)
 : 1.3, -7, -1, -1.3, 1.6%[38.3 µM], -6
- O=C1c2cccnc2C(=O)N1Cc1ccc(F)cc1S(=O)(=O)NCc1ccco1
 : 1.7, -4, ·, -1.7, 1.4%, -1

The list continues:
mol	TRPML1 agonist	Six1-Eya2 inh	CtBP-E1A blk	D2 ag	PINK1 modulator	D2 potentiator
Cc1ccc(C(=O)Nc2cccc(NC(=O)c3ccc(C)o3)n2)o1	0.4	-8	-8	0.3	-0.6%	-1
O=C(c1cc(-c2cccc(O)c2)on1)N1CCOCC1	0.1	3	-8	-5.4	1.7%	-5
O=C(Cc1cccc(C(F)(F)F)c1)Nc1cccc(S(=O)(=O)N2CCCC2)c1	1.8	-1	-7	-1.4	30%	-11
Cc1cc(Cl)ccc1OCC(=O)N1CCN(c2ncccn2)CC1	-0.8	-2	6	-1.5	0.3%	-2
CC(C)[C@H](NC(=O)c1c(F)cccc1F)C(=O)OCC(=O)NNC(=O)c1ccccc1	0.4	-10	8	-3.9	1.3%	-8
N#Cc1c(N2CCOCC2)nc(N)c2c(N)nc3c(c12)CC(CCl)O3 (configuration not stated)	0.0	-10	-13	-1.2	16%	-4
O=C(Nc1ccc(Cl)c(S(=O)(=O)Nc2ccccc2Cl)c1)c1cccs1	0.8	-9	5	1.1	9.9%	-4
CCc1ccc(N2CC(C(=O)Nc3nccs3)CC2=O)cc1 (configuration not stated)	-0.6	-3	6	-0.7	1.4%	1

Continued:
mol	TRPML1 agonist	Six1-Eya2 inh	CtBP-E1A blk	D2 ag	PINK1 modulator	D2 potentiator
COCCNC(=O)c1cc(C(=O)CC(C)C)c[nH]1	0.2	5	3	-4.5	0.7%	-7
CCOc1ccc(NC(=O)N2CCC(n3c(=O)[nH]c4ccccc43)CC2)cc1	0.7	-2	-5	2.1	0.5%	-2
CCCCCCC1NC(C(=O)O)CS1 (configuration not stated)	-0.4	0	-1	-3.3	0.3%	-21
COc1ccc(Cn2nnnc2CN2CCC(O)(c3ccc(F)cc3)CC2)cc1	-0.2	15	4	-4.2	0.4%	-13
COC(=O)CN1C(=O)[C@H]2[C@@H](c3ccc(C)o3)N3C(=O)CN(Cc4ccccn4)C(=O)[C@@]3(C)[C@H]2C1=O	0.2	13	-18	-1.7	-0.2%	-9
Cc1ccc(C(=O)c2c3ccccc3[n+]([O-])n2[C@@H](C)C(N)=O)cc1	-0.6	1	1	2.1	0.2%	-10
CCCN(CCC)CCCNC(=O)CS(=O)Cc1nc(-c2ccc(OC)c(OC)c2)oc1C (configuration not stated)	-0.6	-1	2	-2.4	3.4%	-3
Cc1cc(NC(=O)COC(=O)CNS(=O)(=O)c2ccc(C)c(C)c2)no1	0.0	0	·	2.9	5.3%	-10

The results go on:
mol	TRPML1 agonist	Six1-Eya2 inh	CtBP-E1A blk	D2 ag	PINK1 modulator	D2 potentiator
CCOc1cc(-c2noc(-c3cccnc3)n2)ccc1OC	-0.4	-2	3	-3.4	4.8%	1
O=C(O)c1ccc2c(=O)n3c(nc2c1)/C(=C/c1cccc(Cl)c1Cl)CC3	0.3	6	6	-1.3	5.3%	1
COC(=O)c1[nH]c2c(c1C)C(=O)CC(c1cccs1)C2 (configuration not stated)	-0.4	13	-3	0.2	2.0%	5
O=C(CN(C(=O)CNC(=O)c1ccco1)c1ccc2c(c1)OCCO2)NC1CCCCC1	-0.3	-1	6	6.2	2.0%	2

3 entries already listed, ordered by the number in D2 potentiator, low to high:
Molecule	Six1-Eya2 inh	CtBP-E1A blk	D2 ag	PINK1 modulator	D2 potentiator
CCOc1cc(-c2noc(-c3cccnc3)n2)ccc1OC	-2	3	-3.4	4.8%	1
O=C(CN(C(=O)CNC(=O)c1ccco1)c1ccc2c(c1)OCCO2)NC1CCCCC1	-1	6	6.2	2.0%	2
COC(=O)c1[nH]c2c(c1C)C(=O)CC(c1cccs1)C2 (configuration not stated)	13	-3	0.2	2.0%	5
